From PubChem BioAssay
Lassa entry inh – qHTS for Inhibitors of binding or entry into cells for Lassa Virus; Lassa virus pseudotype entry inhibition, cell reporter; control for the full effect not named in the record; Potency, µM (titrated, usually from 37.9 µM), for the others: at the highest dose activity change, negative = inhibition, most hits filed as inhibitors; actives 1.2% (n = 300,000); AID 540256, 2011; active means well fitted inhibition curve with a large enough effect; inconclusive means small, poorly fitted or top-dose-only effect, or effect the other way; inactive means flat fitted curve, though single readings scatter; tested in HEK293 cells; further: on the % scale 0 is the no-effect control and ±100 the full control effect; nearly all actives have a fitted effect of over 50% in size; luciferase read-out
MARV entry inh – qHTS for inhibitors of binding or entry into cells for Marburg Virus. Marburg virus pseudotyped entry inhibition, cell reporter; control for the full effect not named in the record; about a third of the inactives were read at about 46 µM. Potency, µM (highest dose often 37.8 µM), without a hit: at the highest dose activity change, negative = inhibition, hits mostly inhibitors. actives 1.8% (n = 300,000). AID 540276, 2011; active = well fitted inhibition curve with a large enough effect; inconclusive = small, poorly fitted or top-dose-only effect, or effect the other way; inactive = flat fitted curve, though single readings scatter; tested in HEK293 cells; about a fifth of its hits are not listed in these tables; further: on the % scale 0 is the no-effect control and ±100 the full control effect; luciferase read-out
RE007 growth inh – qHTS Assay for Inhibitors of the HIV-1 protein Vpr; S. pombe RE007 Vpr strain, BacTiter-Glo ATP luminescence, 24 h; control for the full effect not named in the record; Potency, µM (highest dose often 92.2 µM), without a hit: at the top dose activity change, negative = less growth; actives 0.21% (n = 360,000); AID 651644, 2012; active = well fitted falling curve with a large enough effect; inconclusive = small, poorly fitted or top-dose-only effect; inactive = no such curve, though single readings can be large or run the other way;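 further: on the % scale 0 is the no-effect control and ±100 the full control effect; nearly all actives have a fitted effect of over 50% in size; the assay follows cell death caused by Vpr and the record does not say whether a fall means rescue or toxicity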
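Fission yeast RE007 carrying one integrated HIV-1 vpr copy, seeded at OD 0.01 in PMG+AL medium with 23 nL pinned compound. Grown 24 h at 30 degrees; viability read by BacTiter-Glo luminescence after 5 min.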
SARS PLP yeast – qHTS of Yeast-based Assay for SARS-CoV PLP. S. cerevisiae expressing SARS-CoV PLpro, growth rescue; control for the full effect not named in the record. Potency, µM (doses to about 32.9 µM), for inactives: top-dose activity, positive = growth rescue. actives 0.19% (n = 330,000); further: 0% is about no effect; nearly all actives have a fitted effect of over 55% in size; growth read by luminescence after 48 h
Cruzain Triton – qHTS Assay for Promiscuous and Specific Inhibitors of Cruzain (with detergent) | Cruzipain (Trypanosoma cruzi), P25779 | purified cruzain, Z-FR-AMC fluorescence, 0.01% Triton | Potency, µM, for the others: max response, negative = inhibition, most hits filed as inhibitors | actives 0.43% (n = 200,000) | AID 1478, 2009; active means well fitted curve in the direction sought with a large enough effect; inconclusive means small, poorly fitted or top-dose-only effect, or another doubt; inactive means no such curve, though single readings can be large; an effect the other way counts as inactive or inconclusive;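 further: plate controls were neutral wells for no effect and buffer without enzyme for full effect; nearly all actives have a fitted effect of over 40% in size; top concentration of the series not given in the record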
Target sequence (P25779 123-467 limits assumed): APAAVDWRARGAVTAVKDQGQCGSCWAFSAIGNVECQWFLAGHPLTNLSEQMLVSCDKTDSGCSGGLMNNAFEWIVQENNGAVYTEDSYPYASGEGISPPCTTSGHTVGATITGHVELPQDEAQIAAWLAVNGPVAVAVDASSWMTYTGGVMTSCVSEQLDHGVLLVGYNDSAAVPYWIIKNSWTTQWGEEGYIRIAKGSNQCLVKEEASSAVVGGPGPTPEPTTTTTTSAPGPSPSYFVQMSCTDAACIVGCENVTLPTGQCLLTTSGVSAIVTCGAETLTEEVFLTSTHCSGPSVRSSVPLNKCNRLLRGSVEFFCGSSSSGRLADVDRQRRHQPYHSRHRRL
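Enzyme 1.5 nM, Z-FR-AMC 2 uM, NaOAc 100 mM pH 5.5, DTT 5 mM, Triton X-100 0.01%; 15 min RT compound preincubation; kinetic ex360/em450, 60 s delta.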
NS1 inh – qHTS Assay for Inhibitors of Influenza NS1 Protein Function; AID 2326, 2010; actives 0.4% (n = 270,000); S. cerevisiae slowed by influenza A NS1, growth recovery by OD600; Potency, µM (doses to about 46.1 µM), without a hit: at the highest dose activity, positive = more growth; further: actives are rising curves; nearly all actives have a fitted effect of over 50% in size
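Recovery from NS1-induced slow growth read by OD600 in budding yeast switched to galactose assay medium (pH 6.0, -URA) at 1:100 dilution. Compound 23 nl per well; the matching strain lacking NS1 serves as control.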
2A StopGo – High Throughput Screening for Foot and Mouth Disease Virus Antivirals; human cells with a luciferase reporter of 2A StopGo recoding; control for the full effect not named in the record; AID 1159524, 2015; Potency, µM (doses to about 57.9 µM), inactives show top-dose signal change, negative = less light; actives 1.2% (n = 410,000); active = well fitted falling curve with a large enough effect; inconclusive = small, poorly fitted or top-dose-only effect; inactive = no such curve, though single readings can be large or run the other way; tested in HEK293T cells; further: on the % scale 0 is the no-effect control and ±100 the full control effect; nearly all actives have a fitted effect of over 45% in size; luciferase light after 4 h
Cruzain inh noDet – qHTS Assay for Promiscuous and Specific Inhibitors of Cruzain (without detergent); Cruzipain (Trypanosoma cruzi), P25779; purified cruzain, Z-FR-AMC fluorescence, no detergent; Potency, µM, inactives show max response, negative = inhibition, actives largely listed as inhibitors; actives 2.3% (n = 200,000); AID 1476, 2009; active means well fitted curve in the direction sought with a large enough effect; inconclusive means small, poorly fitted or top-dose-only effect, or another doubt; inactive means no such curve, though single readings can be large; an effect the other way counts as inactive or inconclusive;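 further: plate controls were enzyme without inhibitor for no effect and buffer without enzyme for full effect; nearly all actives have a fitted effect of over 40% in size; top concentration of the series not given in the record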
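Purified cruzain at 1.5 nM, pre-incubated 15 min with compound at room temperature in 100 mM sodium acetate pH 5.5, 5 mM DTT, 0.00005% Triton X-100. Reaction started with 2 uM Z-FR-AMC; AMC fluorescence increase over 60 s gives rate.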
Active calls of the source: *; ? = inconclusive; . = no result given; [ ] = remark or other dose. Unless noted, the call rests on the fitted dose curve; in most records, active means well fitted rising curve with a large enough effect; inconclusive means small, poorly fitted or top-dose-only effect; inactive means no such curve, though single readings can be large or run the other way. Potency means the concentration at half of the fitted maximal effect.

SMILES	Lassa entry inh	MARV entry inh	RE007 growth inh	SARS PLP yeast	Cruzain Triton	NS1 inh	2A StopGo	Cruzain inh noDet
CCOC(=O)Nc1ccc2c(c1)N(C(=O)CNC)c1ccccc1CC2	.	.	-10%	-3%	.	9%	-5%	.
N#Cc1c(Cn2cncn2)nc(=O)n(-c2ccc(Cl)cc2)c1N	15%[46.1 µM]	0%[46.1 µM]	2%	0%	.	1%	3%	.
O=C(CCc1c[nH]c2ccccc12)NCc1ccco1	-2%[46.1 µM]	-17%[46.1 µM]	0%	-4%	.	-6%	0%	.
Cc1cc(S(=O)(=O)N2CCOCC2)ccc1OCC(=O)NCCCn1ccnc1	11%	-8%[46.1 µM]	-10%	-2%	.	-3%	36%[activator]	.
COc1ccc(C(=O)/C=C/c2ccc(N(C)C)cc2)c(OC)c1	10µM*	7.1µM*	-10%	-2%	.	8%	43%[activator]	.
CC(C)(C)NC(=O)CCC1COc2ccccc2O1 (configuration not stated)	28%[14.3 µM]	8%	1%	6%	8.3%	-4%	20%	1%
Cc1ccccc1-c1nn2c(=O)cc(CN3CCN(S(=O)(=O)c4ccc(Cl)cc4)CC3)nc2s1	11%[46.1 µM]	.	.	.	1.1%	.	0%	-2%
O=C(CN1CCCc2ccccc21)N/N=C/c1ccccc1O	?	?	-9%	?	-7.1%	-18%	0%	5%
Cc1cccc(NC2=NC3(CCCCC3)N=C(N)N2)c1C	2%	3%	-16%	-6%	0.6%	4%	-7%	2%
CC1CCCC(NC(=O)CN2C(=O)NC(C)(c3cc(F)ccc3F)C2=O)C1C (configuration not stated)	?	7%[46.1 µM]	26%	2%	.	.	-3%	.
COc1ccc(C2CC(c3ccccc3)=NN2C(=O)c2ccc(F)cc2)cc1 (configuration not stated)	-12%	4%	-6%	1%	.	2%	3%	.
CC[n+]1c(/C=C/Nc2ccccc2)oc2ccccc21	?	?	9%	-6%	-0.5%	-12%	-30%	3%
C(=N\Nc1nc(N2CCCCC2)nc(N2CCCCC2)n1)/c1c[nH]c2ccccc12	.	.	-5%	-4%	.	0%	-26%	.
CCN(CC)CC(=O)NCC1(c2ccccc2)CCOCC1	-10%	1%[46.1 µM]	-2%	16%	6.9%	-11%	1%	-7%
COC(=O)C1C(O)=C(C(C)=Nc2cccc3ccccc23)C(=O)CC1(C)C (configuration not stated)	.	.	2%	-1%	.	1%	?	.
Cc1cc(NC(=O)CCC(=O)N(CCC(C)C)C(C(=O)NC2CCCC2)c2ccccc2C)no1 (configuration not stated)	-2%[46.1 µM]	?	6%	1%	.	15%	-12%	.
O=C(O)c1ccc(COc2ccc3ccccc3c2/C=C2/NC(=O)N(Cc3ccc(F)cc3)C2=O)cc1	-13%	?	1%	1%	.	14%	-16%	.
CSc1ccccc1C(=O)NC1CCCC1	13%[14.3 µM]	13%	-10%	7%	4.6%	8%	24%	-9%
CS(=O)(=O)c1nc(S(=O)(=O)c2ccc(Cl)cc2)c(NCCCN2CCOCC2)s1	.	.	0%	5%	.	3%	13%	.
O=C(c1cnn2c(C(F)(F)F)cc(-c3ccco3)nc12)N1CCCCCC1	5%	-24%	-8%	5%	0.3%	?	9%	-6%
CC(=O)c1ccc(OCCCC(=O)NC2CCCCC2C)cc1 (configuration not stated)	16%	0%[46.1 µM]	16%	-12%	.	2%	-11%	.
Cc1nc2ccc(C(C(F)(F)F)(C(F)(F)F)C(F)(F)F)cc2[nH]1	16µM*	-19%	28µM*	-37%	-12%	-86%	0%	-7%
Cc1ccccc1C(=O)NCCNC(=O)c1ccccn1	1%[46.1 µM]	2%[46.1 µM]	-5%	0%	.	4%	-6%	.
COc1ccc(-n2cnnc2SCC(=O)NC2CCCCC2)cc1	-4%	20%	5%	-2%	.	.	-15%	.
CCC(=O)N1CCc2cc(S(=O)(=O)NC(CC(C)C)C(=O)NCc3ccc(C)cc3)ccc21 (configuration not stated)	1%[46.1 µM]	29%[46.1 µM]	.	.	-3.1%	.	-6%	?
COc1ccc(CN2C(=NC(=O)C3CC3)SC3CS(=O)(=O)CC32)cc1 (configuration not stated)	23%[46.1 µM]	13%[46.1 µM]	0%	-3%	.	-9%	5%	.
CCN(CC)C(=O)c1ccc(NC(=O)COc2ccccc2F)cc1	?	?	-8%	6%	.	1%	14%	.
O=C(NC12CC3CC(CC(C3)C1)C2)C12CC3CC(C1)CC(n1cnc(Cl)n1)(C3)C2	8%	-4%	-15%	-1%	-0.6%	4%	-9%	-4%
CC(C)C(=O)Nc1ccccc1C(=O)OCC(=O)c1ccc2c(c1)OCCO2	-10%	?	10%	22%	-7.0%	-12%	-26%	4%
Cc1ccc(C)c(N2CCN(C(=O)CCc3nnc4n(C)c(=O)c5ccccc5n34)CC2)c1	.	9%[46.1 µM]	.	.	0.1%	.	-18%	11%
O=C(COc1ccc(Cl)cc1)NCCS(=O)(=O)N1CCN(c2ccc(F)cc2)CC1	.	.	-7%	1%	.	-3%	2%	.
CC(C)(O)C(=O)N=Nc1c(O)[nH]c2ccccc12	6%	-7%[46.1 µM]	8%	-1%	.	8%	54%[activator]	.
O=C(NC1CCCCC1)c1ccc2c(c1)N(Cc1cccc(Cl)c1)C(=O)c1ccccc1S2=O (configuration not stated)	?	.	.	.	-4.7%	.	-9%	-11%
CCOC(=O)N1CCN(Cc2nc3c(c(=O)n(C)c(=O)n3C)n2Cc2ccc(F)cc2)CC1	?	4%	2%	9%	-0.9%	-8%	-23%	?
CCOC(=O)/C=c1\s/c(=C\c2ccc3c(c2)OCCO3)c(=O)n1CC(=O)NCC1CCCO1 (configuration not stated)	-1%	-1%	5%	-7%	-5.6%	2%	-11%	18%
Fc1ccc(-c2cnn3c(-c4cccs4)ccnc23)cc1	10µM*	?	-10%	0%	.	.	-53%	.
Cc1c(C(=O)NCCN(C)C)oc2ccc(S(=O)(=O)N3CCC4(CC3)OCCO4)cc12	5%	3%[46.1 µM]	-3%	-2%	.	-21%	5%	.
Cc1ccc(Cl)cc1N1CCN(C(=O)C2CCC(=O)N(C3CCCCCC3)C2)CC1 (configuration not stated)	.	.	12%	-4%	.	12%	?	.
CCCN(CCC)S(=O)(=O)c1ccc(C(=O)N2CCn3c4c(c5cc(C)ccc53)CCCC42)cc1 (configuration not stated)	7%[46.1 µM]	-22%[46.1 µM]	.	.	1.5%	.	-11%	-2%
O=C(C1CCCCC1)N(CCN1CCCC1)c1nc2ccccc2s1	1%	?	0%	4%	1.0%	-6%	23%	-17%
OCCC1CN(Cc2nc3c(s2)CCCC3)CCN1Cc1ccsc1 (configuration not stated)	-6%	2%[46.1 µM]	-4%	-1%	.	3%	1%	.
Cc1cccc(OCc2nnc(SCC(=O)c3cccs3)n2C)c1C	-29%[14.3 µM]	-12%	-7%	8%	-2.2%	-64%	11%	7%
CCC(=O)NC(Nc1sc2c(c1C(=O)OC)CCN(C)C2)(C(F)(F)F)C(F)(F)F	1%	-18%	15%	16%	0.1%	-1%	14%	-3%
O=C(Nc1cccc(Cl)c1)Nc1ccon1	11%[46.1 µM]	?	10%	-6%	.	-36%	10%	.
COc1ccc(NC(=O)CCc2nnc3n(CC(C)C)c(=O)c4ccccc4n23)cc1	.	8%[46.1 µM]	.	.	-0.1%	.	-15%	-6%
O=C(CSc1nc2ccccc2c(=O)n1-c1cccc(C(F)(F)F)c1)NC1CC1	8%	-1%	-10%	1%	-0.3%	9%	-16%	-5%
Cc1cc(C=O)c(C)n1C1CC1	7%	?	-12%	-1%	.	.	4%	.
CCCCCCn1cnc2c(c1=O)c1nc3ccccc3nc1n2/N=C/c1ccco1	11%	17%	-4%	4%	-5.3%	-20%	-22%	3%

Entries above containing an NH in an aromatic ring (4):
SMILES	Lassa entry inh	MARV entry inh	RE007 growth inh	SARS PLP yeast	Cruzain Triton	NS1 inh	2A StopGo	Cruzain inh noDet
O=C(CCc1c[nH]c2ccccc12)NCc1ccco1	-2%[46.1 µM]	-17%[46.1 µM]	0%	-4%	.	-6%	0%	.
C(=N\Nc1nc(N2CCCCC2)nc(N2CCCCC2)n1)/c1c[nH]c2ccccc12	.	.	-5%	-4%	.	0%	-26%	.
Cc1nc2ccc(C(C(F)(F)F)(C(F)(F)F)C(F)(F)F)cc2[nH]1	16µM*	-19%	28µM*	-37%	-12%	-86%	0%	-7%
CC(C)(O)C(=O)N=Nc1c(O)[nH]c2ccccc12	6%	-7%[46.1 µM]	8%	-1%	.	8%	54%[activator]	.

Further records.
SMILES	Lassa entry inh	MARV entry inh	RE007 growth inh	SARS PLP yeast	Cruzain Triton	NS1 inh	2A StopGo	Cruzain inh noDet
CCc1ccc(C(O)(CC)C(CN2CCOCC2)c2ccccc2)cc1 (configuration not stated)	-21%	?	-10%	0%	.	1%	?	.
Cc1ccccc1N=C/C=C1/C=C(c2ccccc2)OC(C)(C)O1	-29%	?	-3%	-40%	-12%	-18%	.	-10%
COc1cc(/C=C/C(=O)OC2CC3CCC2(C)C3(C)C)ccc1O (configuration not stated)	.	.	?	-9%	.	-86%	17%	.
CN(C)C(=S)Nc1ccc(Cl)cc1	6%[46.1 µM]	9%[46.1 µM]	3%	0%	.	0%	11%	.
